BJeLR viab HTS – lowers viability of BJeLR cells; BJeLR fibroblasts viability, CellTiterGlo ATP luminescence, 48 h; HRASV12, hTERT and SV40 LT/ST transformed; viability loss activity score, % (test concentration not listed); actives 0.64% (n = 30,000); in the data active = viability loss activity score above about 50%; about a fifth of its hits are not listed in these tables;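 also: higher score means fewer live cells and less ATP luminescence; stock transfer was 50 or 100 nL into about 30 µL; 0% = vehicle wells and 100% = a reference killing control; one replicate is shown; the record names a cut of 85%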
A1 inhib – A1 inhibition. MEF A1-2A-BIM cells, caspase-Glo luminescence, 3 h; percent of clofoctol signal, DMSO as zero. caspase activation, % (concentration not given with the values). actives 0.51% (n = 21,000). AID 2241;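 active = most replicate scores above 10, or exactly half above 10 with mean activity above 10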;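 also: effector caspase 3 and 7 activity cleaving a DEVD luciferin substrate; 50 nL library stock added to about 30 µL; numbers are from one replicate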
Starred values were filed as active, the others as inactive; . = no result given; & = joins results of further samples. These rows are one share of the data; count on the stated rates, not on these rows.

Second line of a record: BJeLR viab HTS	A1 inhib
CCCN(CCC)CCc1c[nH]c2ccc(C(N)=O)cc12
→ -2.9	0.0
C[C@]12CC[C@H](O)C[C@H]1CC[C@@H]1[C@@H]2CC[C@]2(C)[C@@H](C3=CC(=O)OC3)CC[C@]12O
→ 90.7*	-0.6
C/C(CC(c1ccccc1)c1c(O)c2ccccc2oc1=O)=N/O (stereo not drawn)
→ 3.2	0.0
CC1=CC(=O)C2=C(C)C[C@H](O)[C@@H]3[C@H](OC(=O)[C@H]3C)[C@@H]12
→ -6.1	1.3
CCc1ccc(NC2=NCCS2)cc1
→ 7.3	-2.8
OC[C@H]1O[C@@H](n2cnc3cc(Cl)c(Cl)cc32)C(O)[C@H]1O (stereo partly drawn)
→ -4.3	4.3
CCN1C[C@]2(C)CC[C@H](O)[C@@]34C2[C@H](OC)C([C@@H]13)[C@@]1(O)C[C@H](OC)[C@H]2C[C@@H]4[C@@H]1[C@H]2O
→ -8.4	-0.2
OC[C@H]1O[C@@H](Oc2c[nH]c3ccc(Br)c(Cl)c23)[C@H](O)[C@@H](O)[C@H]1O
→ -3.1	0.5
CCN1C[C@]2(C)CC[C@H](OC)[C@@]34C2[C@H](O)C([C@@H]13)[C@@]1(OC)C[C@H](OC)[C@H]2C[C@@H]4[C@@H]1[C@H]2O
→ 3.1	0.2
C[C@@H]1C(=O)O[C@H]2[C@H]1CC[C@@]1(C)C=CC(=O)[C@@]3(C)O[C@@]213
→ 7.0	0.4
O=S1(=O)CC2(N3CCOCC3)CCCCCCC21 (stereo not drawn)
→ -7.3	-0.5
O=C1NC(=O)N(c2ccccc2)C(=O)/C1=C/c1ccco1
→ 2.3	-0.3
COC(=O)C1=COC(C)C2CN3CCc4c([nH]c5cc(OC)ccc45)C3CC12 (stereo not drawn)
→ -4.9	1.6
CCC1(CC)OC(c2cccnc2)Nc2ccccc21 (stereo not drawn)
→ -0.2	0.6
C/C=C(\C)C(=O)OC1C(C)=C2C(C1OC(=O)CCCCCCC)C(C)(OC(C)=O)CC(OC(=O)CCC)C1(O)C2OC(=O)C1(C)O (stereo not drawn)
→ 15.0	2.3
CO[C@H]1[C@@H](O)[C@@H](C)O[C@@H](OC2CCC3(C)C(CC[C@@H]4[C@@H]3CCC3(C)C(C5=CC(=O)OC5)C(O)CC43O)C2)[C@@H]1O (stereo partly drawn)
→ 110.7*	0.2
CSC1=NN1c1cc(C)nc(N)n1
→ -6.8	0.9
CC[C@H]1CN2CC[C@H]1C[C@H]2[C@H](O)c1ccnc2ccc(OC)cc12
→ 0.1	0.7
CCOC(=O)CN1C(=O)C2(C(C(=O)OCC)=C(N)OC3=C2C(=O)CC(C)(C)C3)c2ccccc21 (stereo not drawn)
→ 4.0	.
Cc1ccc(C(C)C)cc1OP1(=O)COc2ccccc2OC1
→ -2.3	0.5
COc1cc2c(cc1O)CC1c3c(cc(O)c(OC)c3-2)CCN1C (stereo not drawn)
→ -4.2	-0.2
CC(C)[C@H]1C(=O)N2CCC[C@H]2[C@]2(O)O[C@](NC(=O)[C@@H]3C=C4c5cccc6[nH]cc(c56)C[C@H]4N(C)C3)(C(C)C)C(=O)N12
→ -8.5	0.4
Cc1ccc2[nH]cc(CC(C)N)c2c1 (stereo not drawn)
→ 4.5	0.3
CC1CCCCCC(=O)c2c(O)cc(O)cc2CC(=O)O1 (stereo not drawn)
→ -4.1	-0.1
O=c1[nH]c(=O)n(-c2ccccc2F)c(O)c1C=NCCC1=CCCCC1
→ 4.5	0.6
O=C(NC1CN2CCC1CC2)c1cccc(Cl)c1 (stereo not drawn)
→ 4.0	4.0
CN[C@@H]1C[C@@]2(C)O[C@@H]([C@@H]1OC)n1c3ccccc3c3c4c(c5c6ccccc6n2c5c31)C(=O)NC4
→ 126.7*	83.8*
COP(=S)(OC)SCn1nnc2ccccc2c1=O
→ 0.7	0.5
O=C(NC(=O)c1ccccc1Cl)Nc1ccc2c(c1)S(=O)(=O)C=C2
→ -1.3	0.0
CN(C)C(=O)Oc1nnc(SCCS(=O)(=O)c2ccc(F)cc2)n1-c1ccccc1
→ -1.7	-0.5
CCN(CC)c1nc2ccccc2c(=O)n1-c1ccccc1
→ -4.4	0.3
CCOC(=O)c1c(C)n(C2CCCCC2)c2ccc(O)cc12
→ -0.7	-0.6
Cc1cccc(NC2=NCCCS2)c1
→ 2.6	0.6
CCOP(=S)(OCC)Oc1nc(Cl)c(Cl)cc1Cl
→ -4.1	1.4
CN1CCCCC1c1ccc(-c2cccnc2)nc1 (stereo not drawn)
→ 6.9	0.1
CC1(C)C(C(=O)Nc2ccccc2C#N)C1(C)C
→ -4.8	0.5
CC1=CC2OC3[C@H](O)C[C@@](C)([C@]34CO4)[C@@]2(CO)[C@H](O)C1=O (stereo partly drawn)
→ 73.9*	2.9
O=c1ccc2cc(O[C@@H]3O[C@H](CO)[C@@H](O)[C@H](O)[C@H]3O)c(O)cc2o1
→ -2.9	0.7
CC[C@@H](C)C(=O)O[C@H]1[C@H](O)[C@H]2[C@@H](CN3C[C@@H](C)CC[C@H]3[C@@]2(C)O)C2C[C@]34O[C@@]5(O)[C@@H](OC(=O)[C@](C)(O)CC)CC[C@@]3(C)[C@@H]5[C@@H](OC(C)=O)[C@@H](OC(C)=O)[C@H]4[C@@]21O (stereo partly drawn)
→ -12.0	-1.0
CCC1CN2CCC3(C(=O)Nc4cccc(O)c43)C2CC1/C(=C/OC)C(=O)OC (stereo not drawn)
→ -6.0	0.4

Remaining list, next part
Structure | BJeLR viab HTS | A1 inhib
CCOC(=O)c1c(C)n(C(C)C)c2ccc(OC(=O)c3ccccc3)cc12 | -3.8 | 0.8
O=C1CCCN1CC#CCN1CCCC1 | -4.1 | -0.2
Cc1ccccc1OCCCn1cc(C(=O)C2CC2)c2ccccc21 | 6.6 | .
C[C@]12N[C@H](Cc3ccccc31)c1ccccc12 | -1.9&-19.4 | -0.1&0.3
FC(F)(F)c1cccc(N2CCNCC2)c1 | -2.7&-7.0 | 1.2&0.7
Clc1ccc(C(c2ccc(Cl)cc2)C(Cl)(Cl)Cl)cc1 | -0.4 | 0.2
O=C1NC(=O)C(=Cc2cn(Cc3ccccc3)c3ccccc23)C(=O)N1 | 5.1 | 32.8*
CN(C)C(=O)Oc1ccnc(SCc2c(F)cccc2Cl)n1 | 7.1 | 1.0
Cc1ccc(S(=O)(=O)N2CCCCC2)cc1C(=O)Oc1cccc2cccnc12 | -3.7 | -0.6
C[C@@]12C[C@@H](c3ccoc3)OC(=O)C1CC[C@]1(C)[C@H]2[C@H]2C=C[C@]1(O)C(=O)O2 (stereo partly drawn) | 0.7 | -0.4
COC1CC(OC2CCC3(C)C(CCC4C3CCC3(C)C(C5=CC(=O)OC5)C(OC(C)=O)CC43O)C2)OC(C)C1OC1OC(COC2OC(CO)C(O)C(O)C2O)C(O)C(O)C1O (stereo not drawn) | 96.0* | 0.1
CC(=O)NCC1CCCN2CCCCC12 (stereo not drawn) | 2.5 | 0.6
COC(=O)[C@H]1O[C@@H]2C[C@H]3OC(n4cnc5c(N)ncnc54)[C@H](OC)[C@H]3O[C@@]2(O)[C@@H](O)[C@@H]1O (stereo partly drawn) | -3.0 | -0.5
COC(=O)C12CC3CC(C(C)O)C1N(CCc1c2[nH]c2ccc(OC)cc12)C3 (stereo not drawn) | 2.6 | 1.7
CC(CCc1ccc(O)cc1)O[C@@H]1O[C@H](CO[C@H]2OC[C@](O)(CO)[C@H]2O)[C@@H](O)[C@H](O)[C@H]1O (stereo partly drawn) | -8.3 | -0.5
C/C=C\C(=O)O[C@@H]1C[C@H]2O[C@@H]3C=C(C)C(=O)C[C@]3(C)[C@]1(C)[C@]21CO1 | 101.0* | 10.9*
O=[P+](c1ccccc1)c1ccccc1 | -9.4 | 0.3
CN1C(=O)CCS(=O)(=O)C1c1ccc(Cl)cc1 (stereo not drawn) | -8.3 | -0.5
COC[C@H]1OC(=O)c2coc3c2[C@@]1(C)C1=C(C3=O)[C@@H]2CCC(=O)[C@@]2(C)C[C@H]1OC(C)=O | 4.1 | 61.9*
C=CCN1CCc2cccc3c2[C@H]1Cc1ccc(O)c(O)c1-3 | -5.5 | 0.3
COc1cccc(N2CCNCC2)c1 | 3.4 | .
c1ccc(CCNCc2ccccc2)cc1 | 2.2 | 0.5
CCCCc1nc2ccccc2c(=O)n1-c1ccc(C)cc1 | -1.1 | -0.7
CC1(C)C(=O)C=C[C@@]2(C)C1C[C@@H](O)[C@]1(C)C2CC[C@@]2(C)[C@H](c3ccoc3)OC(=O)[C@H]3O[C@]321 (stereo partly drawn) | -11.1 | -0.4
COc1ccc(CC2C(=O)OCC2Cc2ccc3c(c2)OCO3)cc1OC (stereo not drawn) | -4.2 | 0.2
CCOC(=O)c1cc(CC)sc1/N=C/C1C(=O)NC(=S)NC1=O | 1.9 | .
CC(N)Cc1c[nH]c2ccc(OCc3cccs3)cc12 (stereo not drawn) | -1.9 | 2.3
COC(=O)C1=CO[C@H](C)[C@@H]2CN3CCC4(C(=O)Nc5ccccc54)C3C[C@H]12 (stereo partly drawn) | -3.3 | 0.8
CC(C)c1cc2c(cc1O)[C@@]1(C)CCCC(C)(C)[C@@H]1CC2O (stereo partly drawn) | 3.8 | -0.5
C[C@H]1O[C@@H](O[C@H]2CC[C@]3(CO)C4CC[C@]5(C)[C@@H](C6=CC(=O)OC6)CC[C@]5(O)[C@@H]4CC[C@H]3C2)[C@H](O)[C@H](O)[C@@H]1O[C@@H]1O[C@H](CO)[C@@H](O)[C@H](O)[C@H]1O (stereo partly drawn) | 109.2* | -0.1
COC(=O)NC(=S)Nc1ccccc1NC(=S)NC(=O)OC | 5.3 | -0.1
Cc1ccc2cc3c(ccc4ccccc43)c3c2c1CC3 | 0.2 | -0.5
COc1ccc(CN2CCN(Cc3ccccc3C)CC2)cc1 | -1.7 | 1.2
O=C(NC(=O)c1c(F)cccc1F)Nc1cc(Cl)c(OC(F)(F)C(F)C(F)(F)F)cc1Cl (stereo not drawn) | -0.7 | -1.1
CCc1cccc(C)c1N(C(=O)CCl)C(C)COC (stereo not drawn) | -1.6 | 0.6
COc1ccc2c(c1OC)CN1CCc3cc4c(cc3C1C2)OCO4 (stereo not drawn) | 3.1 | -0.7
N[C@H](CO)Cc1ccccc1 | 1.6 | 0.0
COC1CC(O[C@H]2CC[C@@]3(C)C(CCC4C3CC[C@]3(C)C(C5=CC(=O)OC5)CCC43O)C2)OC(C)C1OC1OC(COC2OC(CO)C(O)C(O)C2O)C(O)C(O)C1O (stereo partly drawn) | 93.5* | 0.1
CC(N)Cc1ccc(O)cc1 (stereo not drawn) | -1.9 | 0.2
CC(=O)OC[C@]12C[C@H](O)C(C)=C[C@H]1O[C@@H]1[C@H](O)[C@@H](OC(C)=O)[C@@]2(C)[C@]12CO2 | 118.7* | 13.3*
N#C[C@@H](OC1OC(COC2OCC(O)C(O)C2O)C(O)C(O)C1O)c1ccccc1 (stereo partly drawn) | -4.7 | 1.4
O=c1c2ccccc2[se]n1-c1ccccc1 | 26.4 | -7.2
CC[C@@H](CO)NC(=O)[C@@H]1C=C2c3cccc4[nH]cc(c34)C[C@H]2N(C)C1 | -3.2&-0.5 | -0.2&-0.6
CN1C(=O)NC(=O)/C(=C\C=C\c2ccco2)C1=O | -2.7 | -0.1
c1cncc([C@H]2CCCCN2)c1 | 0.7 | 0.5
COc1cccc(CNCCc2c[nH]c3ccccc23)c1 | -1.9 | 0.0
C[C@H]1O[C@@H](O[C@H]2[C@@H](O)C[C@H](O[C@H]3[C@@H](O)C[C@H](O[C@H]4CC[C@@]5(C)[C@H](CC[C@@H]6[C@@H]5CC[C@]5(C)[C@@H](C7=CC(=O)OC7)CC[C@]65O)C4)O[C@@H]3C)O[C@@H]2C)C[C@H](O)[C@@H]1O | 134.3* | -0.1
CCOC(=O)[C@@H]1[C@@H]2NC(=O)N[C@@]1(C)Oc1ccccc12 | -1.9 | 1.3
CCCSP(=O)(OCC)SCCC | -1.9 | -0.7
O=C(c1ccccc1)N1CC2CC(C1)c1cccc(=O)n1C2 (stereo not drawn) | 0.0 | -0.2
c1ccc(C2CNCc3ccccc32)cc1 (stereo not drawn) | -0.2 | -0.9
O=C1CCCC2C3CC(CN12)[C@@H]1CCCCN1C3 (stereo partly drawn) | -8.0 | 1.2
O=c1c2ccccc2nc(C(F)(F)F)n1-c1ccccc1 | 3.1 | -0.1
C=C(CO)C(=O)O[C@H]1C/C(C)=C\CC/C(CO)=C\[C@H]2OC(=O)C(=C)[C@H]12 | 3.6 | 1.2
COc1cc2c(cc1O)[C@@H]1Cc3ccc(OC)c(O)c3CN1CC2 | 14.2 | 0.7
O=C(O)C1C2CCC(O2)C1C(=O)N1CCN(C/C=C/c2ccccc2)CC1 (stereo not drawn) | 8.8 | .
C[C@H]1O[C@@H](O[C@H]2[C@@H](O)C[C@H](O[C@H]3[C@@H](O)C[C@H](O[C@H]4CC[C@]5(C)C6CC[C@]7(C)[C@@H](C8=CC(=O)OC8)CC[C@]7(O)C6CC[C@@H]5C4)O[C@@H]3C)O[C@@H]2C)C[C@H](O)[C@@H]1O (stereo partly drawn) | 112.9* | 0.8

Laid out differently: results already given.
compound: O=c1c2ccccc2[se]n1-c1ccccc1
  BJeLR viab HTS = 26.4 | A1 inhib = -7.2

compound: O=C1CCCC2C3CC(CN12)[C@@H]1CCCCN1C3 (stereo partly drawn)
  BJeLR viab HTS = -8.0 | A1 inhib = 1.2

compound: O=C(NC(=O)c1c(F)cccc1F)Nc1cc(Cl)c(OC(F)(F)C(F)C(F)(F)F)cc1Cl (stereo not drawn)
  BJeLR viab HTS = -0.7 | A1 inhib = -1.1

compound: c1cncc([C@H]2CCCCN2)c1
  BJeLR viab HTS = 0.7 | A1 inhib = 0.5

Bioassay records as filed in PubChem.
